From PubChem BioAssay
Ecoli rRNA inh: inhibitors of bacterial rRNA selective over humanized ribosomes. 350,000 compounds, 1.6% hits. E. coli WT GFP vs humanized-ribosome RFP mutants, fluorescence, 24 h; active compounds read low; DMSO median 0, no signal -100. GFP signal change (wild-type ribosome), % (concentration not given with the values);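 active = significant combined selectivity score with lowered wild-type GFP, culture density cut under 30%, mutant RFP and density less affected; inactive = any of these conditions unmet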; note: one replicate is shown; some compounds called inactive have numbers as strong as hits
FGF22 binding: shifts melting point of recombinant human FGF22. 340,000 compounds, 1.5% hits. recombinant FGF22 thermal shift, SYPRO orange fluorescence; percent of sucrose octasulfate shift, DMSO zero. calls only at 9.99 µM. Q9HCT0;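 active = melting point raised past a set limit in the mean and every replicate; three in four hits are not shown here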
Target sequence (Q9HCT0 whole entry, looked up): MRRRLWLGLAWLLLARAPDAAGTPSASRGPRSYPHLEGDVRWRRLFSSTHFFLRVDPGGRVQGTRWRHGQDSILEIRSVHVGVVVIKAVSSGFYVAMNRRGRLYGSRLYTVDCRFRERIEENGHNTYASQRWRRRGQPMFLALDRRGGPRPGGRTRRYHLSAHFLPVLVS
Ecoli rRNA inh OD600: recorded beside Ecoli rRNA inh, whose call it bears; OD600 change, %; measured here: OD600 growth;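 optical density of the mix in the first replicate; 0 = DMSO median and -100 = no signal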
Ecoli rRNA inh RFP: also measured in Ecoli rRNA inh; calls as there; RFP signal change, %; measured here: RFP humanized mutant strains;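 first replicate; 0 = DMSO median and -100 = no signal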
* hit, by the source's call; i = inactive; + = active, no number; & = joins results of further samples.

Ecoli rRNA inh | Ecoli rRNA inh OD600 | Ecoli rRNA inh RFP | FGF22 binding | compound
2 | 2 | -1.1 | i | C[C@H](CO)N1C[C@H](C)[C@@H](CN(C)S(=O)(=O)c2ccc(F)cc2)Oc2ccc(NC(=O)CCCN(C)C)cc2C1=O
4 | 6 | 1.8 | i | C[C@H]1CCCCO[C@@H](CN(C)S(=O)(=O)c2cccs2)[C@@H](C)CN([C@@H](C)CO)C(=O)c2cc(NC(=O)Nc3ccc(F)cc3)ccc2O1
-2 | -2 | 0.2 | i | C[C@@H]1CN([C@H](C)CO)C(=O)c2cc(NS(=O)(=O)c3ccc(F)cc3)ccc2O[C@@H]1CN(C)Cc1ccncc1
-3 | 3 | -0.4 | i | COc1ccccc1-c1ccc2c(c1)O[C@H](CN(C)Cc1ccc3c(c1)OCO3)[C@@H](C)CN([C@H](C)CO)S2(=O)=O
-7 | -20 | -3.9 | i | O=C(C[C@@H]1CC[C@@H]2[C@H](COC[C@H](O)CN2Cc2cc(F)ccc2F)O1)NCc1ccc(F)cc1
0 | -4 | -0.6 | i | Cc1noc(C)c1NC(=O)N(C)C[C@H]1OCCCC[C@@H](C)Oc2ccc(NS(=O)(=O)c3cn(C)cn3)cc2C(=O)N([C@H](C)CO)C[C@H]1C
2 | 14 | -3.9 | i | CCCNC(=O)N1CC2(C1)CN(C(=O)COC)[C@H](CO)c1[nH]c3cc(OC)ccc3c12
-2 | -3 | -1.0 | + | C[C@@H]1CN([C@@H](C)CO)C(=O)c2cc(NS(=O)(=O)c3ccc(Cl)cc3)ccc2O[C@@H](C)CCCCO[C@H]1CN(C)S(=O)(=O)c1cn(C)cn1
4&22 | 3&25 | -1.0&3.0 | i | CNC[C@@H]1OCc2cnnn2CCCC(=O)N([C@@H](C)CO)C[C@H]1C
-1 | -2 | -1.4 | i | COc1ccc(CN(C)C[C@H]2Oc3c(NS(=O)(=O)c4ccc(Cl)cc4)cccc3C(=O)N([C@@H](C)CO)C[C@H]2C)cc1
3 | 4 | -1.0 | i | CO[C@@H]1CN(C)C(=O)c2ccc(NS(C)(=O)=O)cc2OC[C@@H](C)N(CC2CC2)C[C@H]1C
-5 | -57 | 24 | i | Cc1ccc(S(=O)(=O)Nc2ccc3c(c2)CC(=O)N([C@@H](C)CO)C[C@@H](C)[C@@H](CN(C)Cc2ccc4c(c2)OCO4)O3)cc1
-5 | -23 | 7.4 | i | CC(C)NC(=O)Nc1ccc2c(c1)C(=O)N([C@H](C)CO)C[C@H](C)[C@H](CN(C)Cc1ccc(Cl)c(Cl)c1)OCCCC[C@H](C)O2
3 | 9 | 18 | i | CCNC(=O)C[C@H]1CC[C@@H]2[C@H](COC[C@@H](O)CN2C(=O)C2CCCC2)O1
3 | 7 | -2.0 | i | CCCNC(=O)Nc1ccc2c(c1)C(=O)N(C)C[C@@H](OC)[C@@H](C)CN[C@@H](C)CO2
-1 | 9 | 3.3 | i | COc1ccccc1C#Cc1ccc2c(c1)O[C@H](CN(C)C)[C@H](C)CN([C@H](C)CO)S2(=O)=O
5 | -9 | 2.7 | i | COc1cccc(C#Cc2ccc([C@@H]3[C@H](C#N)N(C(=O)c4ccccn4)[C@H]3CO)cc2)c1
-2 | -26 | 4.2 | i | C[C@H](CO)N1C[C@H](C)[C@H](CN(C)Cc2ccc3c(c2)OCO3)Oc2ccc(NC(=O)Nc3ccc(F)cc3)cc2C1=O
-1 | 1 | -0.7 | i | CC=Cc1ccc2n(c1=O)C[C@H]1[C@H](CO)[C@@H](C(=O)NCC3CC3)[C@@H]2N1Cc1cccnc1 (mixture of isomers)
1 | -1 | -0.1 | i | Cc1noc(C)c1NC(=O)Nc1ccc2c(c1)C(=O)N([C@@H](C)CO)C[C@@H](C)[C@@H](CN(C)Cc1ccc3c(c1)OCO3)OCCCC[C@@H](C)O2

Whole records, quoted from the list. Order of values: Ecoli rRNA inh, Ecoli rRNA inh OD600, Ecoli rRNA inh RFP, FGF22 binding
Cc1noc(C)c1NC(=O)Nc1ccc2c(c1)C(=O)N([C@@H](C)CO)C[C@@H](C)[C@@H](CN(C)Cc1ccc3c(c1)OCO3)OCCCC[C@@H](C)O2 in the list: 1, -1, -0.1, i
COc1ccccc1C#Cc1ccc2c(c1)O[C@H](CN(C)C)[C@H](C)CN([C@H](C)CO)S2(=O)=O in the list: -1, 9, 3.3, i

The results go on:
Ecoli rRNA inh | Ecoli rRNA inh OD600 | Ecoli rRNA inh RFP | FGF22 binding | compound
1 | -3 | -2.5 | i | CC=Cc1ccc2n(c1=O)C[C@H]1[C@H](CO)[C@@H](C(=O)NCCc3ccncc3)N(CCC(F)(F)F)[C@@H]21 (mixture of isomers)
0 | 1 | 1.9 | i | C[C@@H]1CN([C@H](C)CO)C(=O)c2ccccc2-c2ccccc2CO[C@H]1CN(C)S(=O)(=O)c1cccs1
-2 | -6 | -1.9 | i | COc1ccc(NC(=O)N(C)C[C@@H]2OCCCC[C@H](C)Oc3ccc(NC(=O)Nc4ccc5c(c4)OCO5)cc3C(=O)N([C@@H](C)CO)C[C@@H]2C)cc1
4 | 18 | -2.0 | i | Cc1noc(C)c1NC(=O)N(C)C[C@@H]1Oc2c(NC(=O)c3ccncc3)cccc2C(=O)N([C@@H](C)CO)C[C@@H]1C
5 | 4 | -1.3 | i | Cc1noc(C)c1NC(=O)N(C)C[C@H]1Oc2ccc(N(C)C)cc2CC(=O)N([C@@H](C)CO)C[C@H]1C
-10 | -23 | 3.1 | i | C[C@H](CO)N1C[C@H](C)[C@@H](CN(C)Cc2cncnc2)Oc2cc(/C=C/c3ccccc3)ccc2S1(=O)=O
-1 | 22 | -0.9 | i | C[C@H]1CN([C@@H](C)CO)C(=O)Cc2cc(NC(=O)Nc3ccc4c(c3)OCO4)ccc2O[C@H]1CN(C)S(C)(=O)=O
-1 | 3 | -0.2 | i | CC(=O)Nc1ccc2c(c1)C(=O)N(C)[C@@H]1CC[C@H](CC(=O)NCC3CC3)O[C@@H]1CO2
3 | 1 | -2.4 | i | COc1ccc2c3c(n(C)c2c1)[C@H](CO)N(C(=O)C1CCCC1)CC31CN(C(=O)Nc2cccc(F)c2)C1
2 | 6 | 1.1 | i | CCN1[C@@H]2Cn3c(ccc(-c4ccccc4OC)c3=O)[C@H]1[C@@H](C(=O)NCc1ccccn1)[C@@H]2CO
-1 | 14 | 9.8 | i | C[C@H](CO)N1C[C@H](C)[C@@H](CN(C)Cc2cncnc2)Oc2ncc(/C=C/c3ccccc3)cc2C1=O
-3 | -14 | 0.6 | i | CC(C)CC#Cc1ccc2c(c1)O[C@H](CN(C)C(=O)c1ccccn1)[C@@H](C)CN([C@@H](C)CO)S2(=O)=O
-1 | -2 | -1.2 | i | C[C@H]1CN([C@@H](C)CO)C(=O)c2cc(NC(=O)NC3CCCCC3)ccc2O[C@H]1CN(C)C(=O)NC1CCCCC1
-1 | 3 | 1.6 | i | O=C(C[C@@H]1CC[C@H]2[C@@H](COC[C@H](O)CN2Cc2nccs2)O1)NCc1ccccc1F
-9 | -7 | -0.3 | i | COc1ccc(NC(=O)N(C)C[C@@H]2Oc3ncc(-c4ccc(C#N)cc4)cc3C(=O)N([C@H](C)CO)C[C@@H]2C)cc1
3 | 1 | 1.0 | i | C[C@@H]1CN([C@@H](C)CO)C(=O)c2cc(C3=CCCC3)cnc2O[C@H]1CN(C)C(=O)c1ccccn1
-3 | -5 | 4.5 | i | CO[C@@H]1CN(C)C(=O)c2cc(NS(=O)(=O)c3ccc(Oc4ccccc4)cc3)ccc2OC[C@@H](C)NC[C@@H]1C
-2 | 6 | 1.3 | i | C[C@H]1CN([C@@H](C)CO)C(=O)c2cccc(NC(=O)C3CC3)c2O[C@@H]1CN(C)CC1CCCCC1
0 | -5 | -1.5 | i | C[C@H](CO)N1C[C@H](C)[C@H](CN(C)S(=O)(=O)c2cccs2)Oc2ccc(NS(=O)(=O)c3ccccc3)cc2CC1=O
3 | 4 | -1.9 | i | COc1ccc(S(=O)(=O)Nc2cccc3c2O[C@@H](CN(C)S(=O)(=O)c2cn(C)cn2)[C@@H](C)CN([C@@H](C)CO)C3=O)cc1
-6 | 4 | 13 | i | CC(C)(C)[S@](=O)N1Cc2cc(C(=O)N3CCc4ccccc4C3)nc(-c3cccc(-c4cccnc4)c3)c2[C@@H]1CCO
2 | 4 | -0.3 | i | C[C@H](CO)N1C[C@H](C)[C@@H](CN(C)CC2CC2)Oc2ccc(NS(=O)(=O)c3ccc(F)cc3)cc2C1=O
1 | 1 | -1.2 | i | C[C@@H]1CN([C@@H](C)CO)C(=O)c2cccc(NS(C)(=O)=O)c2O[C@H]1CN(C)Cc1ccc2c(c1)OCO2
-1 | -11 | 2.3 | i | COc1ccc(S(=O)(=O)Nc2ccc3c(c2)CC(=O)N([C@H](C)CO)C[C@@H](C)[C@@H](CN(C)C(=O)Nc2ccc(C(F)(F)F)cc2)O3)cc1
0 | -5 | 0.7 | i | C[C@@H]1CCCCO[C@@H](CN(C)Cc2ccc(C(F)(F)F)cc2)[C@@H](C)CN([C@H](C)CO)C(=O)c2cc(NS(=O)(=O)c3cccs3)ccc2O1
3 | 19 | -2.5 | i | C[C@H]1CN([C@@H](C)CO)C(=O)c2cc(NC(=O)C3CCCCC3)ccc2O[C@H]1CN(C)C
-6 | -8 | 8.8 | i | CCC(=O)N1C[C@@H](C)[C@H](OC)CN(C)C(=O)c2ccc(NC(=O)Nc3ccc(Cl)cc3)cc2OC[C@@H]1C
3 | 8 | -6.5 | + | C/C=C/c1ccc([C@@H]2[C@H](C#N)N(C(=O)CN3CCOCC3)[C@H]2CO)cc1
0 | 7 | -1.6 | i | CN(C)c1ccc2c(c1)[C@H]1C[C@@H](CC(=O)NCc3cccc(F)c3)O[C@@H](CO)[C@H]1O2
0 | -10 | 2.5 | i | C[C@@H]1CN([C@@H](C)CO)C(=O)c2cc(C#Cc3ccccc3F)cnc2O[C@@H]1CN(C)C(=O)Cc1cccnc1
6 | 1 | 1.1 | i | c1ccc2c(c1)OCc1nccn1-2
-3 | -5 | -1.4 | i | CO[C@@H]1CN(C)C(=O)c2cc(NC(=O)Nc3ccc(F)cc3)ccc2OC[C@@H](C)N(C(=O)c2cnccn2)C[C@H]1C
3 | -9 | -0.2 | i | CC(C)CC#Cc1ccc2c(c1)O[C@H](CN(C)C)[C@H](C)CN([C@H](C)CO)S2(=O)=O
0 | -12 | -1.1 | i | COCCNC(=O)C[C@@H]1C[C@H]2c3cc(NC(=O)c4cccnc4)ccc3O[C@H]2[C@@H](CO)O1
-4 | -12 | 1.2 | i | N#C[C@H]1[C@@H](c2ccc(-c3ccc(F)cc3)cc2)[C@H](CO)N1c1nc(-c2ccccc2)cs1
3 | 16 | -2.6 | i | COc1ccc(NC(=O)Nc2ccc3c(c2)C(=O)N([C@@H](C)CO)C[C@@H](C)[C@H](CN(C)S(=O)(=O)c2cn(C)cn2)O3)cc1
1 | 4 | -1.9 | i | C[C@@H]1CN([C@@H](C)CO)C(=O)Cc2cc(NC(=O)Nc3ccc(C(F)(F)F)cc3)ccc2O[C@@H]1CN(C)Cc1ccc(-c2ccccc2)cc1
-1 | -3 | 5.9 | i | C[C@H]1CN([C@@H](C)CO)C(=O)c2cccc(NC(=O)CCCCCC(=O)Nc3ccccc3N)c2O[C@@H]1CN(C)C(=O)Nc1cccc2ccccc12
4 | 6 | 1.2 | i | O=C(NC1Cc2ccccc2C1)[C@H]1[C@H](CO)[C@H]2Cn3c(cccc3=O)[C@H]2N1C(=O)c1ccccn1
2 | 10 | 0.7 | i | C[C@@H]1CCCCO[C@H](CN(C)Cc2ccc3c(c2)OCO3)[C@@H](C)CN([C@H](C)CO)C(=O)c2cc(NS(C)(=O)=O)ccc2O1

Arranged by heavy-atom count (largest number first): some entries from above
Ecoli rRNA inh | Ecoli rRNA inh OD600 | Ecoli rRNA inh RFP | FGF22 binding | compound
-1 | -11 | 2.3 | i | COc1ccc(S(=O)(=O)Nc2ccc3c(c2)CC(=O)N([C@H](C)CO)C[C@@H](C)[C@@H](CN(C)C(=O)Nc2ccc(C(F)(F)F)cc2)O3)cc1
-6 | 4 | 13 | i | CC(C)(C)[S@](=O)N1Cc2cc(C(=O)N3CCc4ccccc4C3)nc(-c3cccc(-c4cccnc4)c3)c2[C@@H]1CCO
0 | -12 | -1.1 | i | COCCNC(=O)C[C@@H]1C[C@H]2c3cc(NC(=O)c4cccnc4)ccc3O[C@H]2[C@@H](CO)O1

Further entries:
Ecoli rRNA inh | Ecoli rRNA inh OD600 | Ecoli rRNA inh RFP | FGF22 binding | compound
-7 | 6 | 1.4 | i | COC(=O)C[C@@H]1C[C@@H]2c3cc(NS(=O)(=O)c4cccc(OC)c4)ccc3O[C@@H]2[C@H](CO)O1
0 | 6 | 0.8 | i | COc1ccccc1-c1cnc2c(c1)C(=O)N([C@@H](C)CO)C[C@H](C)[C@@H](CN(C)C)O2
1 | 5 | -1.7 | i | C[C@H](CO)N1C[C@H](C)[C@H](CN(C)C(=O)Nc2ccc3c(c2)OCO3)OCCCC[C@H](C)Oc2ccc(NC(=O)C3CCCCC3)cc2C1=O
1 | 2 | -0.5 | i | CCC(=O)N(C)C[C@H]1[C@@H](c2ccc(-c3ccccc3F)cc2)[C@@H](CO)N1C(C)=O
2 | -9 | 2.0 | i | CCC(=O)N1CCC2(CC1)CN(Cc1cc(F)ccc1F)[C@H](CO)c1c2c2ccc(OC)cc2n1C

These rows are one share of the data. The share of hits here may be higher or lower than overall.
